Screening results: PubChem BioAssay, several laboratories
ALR inh – inhibitors of human ALR sulfhydryl oxidase, primary screen, biochemical, H2O2 detection, HRP-luminol luminescence, single point. FAD-linked sulfhydryl oxidase ALR (Homo sapiens), P55789. purified ALR, DTT oxidation. inhibition, % (no concentration beside the values). hit rate 3.8% among 290,000. AID 485317, 2010;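 active means mean and each replicate at 75% or more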;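 further: stock transfer was 7.5 nL into about 7.5 µL; 0% = neutral wells and 100% = wells with inactivated enzyme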
E coli growth – E. coli growth inhibition, primary screen, OD600. Escherichia coli growth, 23 h; active compounds read low. OD600 absorbance (test concentration not listed). hit rate 0.21% among 330,000;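 active means OD600 absorbance below the run mean of sample wells minus 3.6 SD, in any replicate, cut at about 0.56 in these data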;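 further: stock transfer was 300 nL into about 60 µL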
Ecoli rRNA inh – reduced GFP signal of wild-type E. coli, primary screen, bacterial rRNA inhibitor project, GFP/RFP fluorescence, OD600, single point; E. coli WT GFP vs humanized-ribosome RFP mutants, 24 h; active compounds read low; DMSO median 0, no signal -100; GFP signal change (wild-type ribosome), % (concentration not given with the values); hit rate 1.6% among 350,000; AID 720706, 2013;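 active means significant combined selectivity score with lowered wild-type GFP, culture density cut under 30%, mutant RFP and density less affected; inactive means any of these conditions unmet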; further: one replicate is shown; some compounds called inactive have numbers as strong as hits
HNF4A DNA FP – change in binding of human HNF4A to DNA, primary screen, biochemical, fluorescence polarization, FITC-DNA; hit rate 0.3% among 360,000; activity change, % at 10 µM; Hepatocyte nuclear factor 4-alpha (Homo sapiens), P41235; 1 h; in the data active means activity change above about 30%, passing the limit was not always enough;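 further: controls were the assay level and a saturating level of protein; the project sought stronger binding though the title names inhibitors; some compounds called inactive have numbers as strong as hits; positive values seem to mean higher polarization but the record does not say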
Target sequence (P41235 whole entry, looked up): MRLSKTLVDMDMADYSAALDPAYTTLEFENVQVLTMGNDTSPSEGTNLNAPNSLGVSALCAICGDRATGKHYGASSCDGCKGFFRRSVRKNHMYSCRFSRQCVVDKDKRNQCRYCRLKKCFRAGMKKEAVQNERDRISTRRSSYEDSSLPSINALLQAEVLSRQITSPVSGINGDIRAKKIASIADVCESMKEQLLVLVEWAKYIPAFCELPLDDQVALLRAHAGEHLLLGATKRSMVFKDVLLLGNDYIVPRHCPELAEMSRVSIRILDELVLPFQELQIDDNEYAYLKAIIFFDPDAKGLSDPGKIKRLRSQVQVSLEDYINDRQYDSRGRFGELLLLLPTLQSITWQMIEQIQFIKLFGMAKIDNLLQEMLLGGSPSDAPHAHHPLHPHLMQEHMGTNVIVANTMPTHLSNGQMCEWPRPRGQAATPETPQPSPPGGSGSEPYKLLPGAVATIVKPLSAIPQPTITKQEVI
Beta2AR agonist – beta2AR agonists driving receptor internalization, primary screen, cell-based, FAP fluorogen, flow cytometry. AID 504454, 2011. response, % (concentration not given with the values). Beta-2 adrenergic receptor (Homo sapiens), P07550. hit rate 0.43% among 340,000. Am2.2-beta2AR cells; reference of the scale not given here;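 active means response above a set limit, near 3 SD of response in nonfluorescent compounds, cut at about 42% in these data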;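 further: stock transfer was 100 nL into about 11 µL; a reference agonist was the positive control; negative values mostly stem from fluorescent compounds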
UCH37 inh – inhibitors of human UCH37 deubiquitinase, primary screen, biochemical, Ub-AMC cleavage, fluorescence | Ubiquitin carboxyl-terminal hydrolase isozyme L5 (Homo sapiens), Q9Y5K5 | AID 588478, 2011 | hit rate 0.33% among 330,000 | purified proteasome/UCH37 | inhibition, % (no concentration beside the values);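 active means mean of two replicates above 20%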;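 further: 0% = compound-free wells with enzyme and 100% = wells lacking proteasome; stock transfer was 100 nL into about 20 µL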
Target sequence (Q9Y5K5 whole entry, looked up): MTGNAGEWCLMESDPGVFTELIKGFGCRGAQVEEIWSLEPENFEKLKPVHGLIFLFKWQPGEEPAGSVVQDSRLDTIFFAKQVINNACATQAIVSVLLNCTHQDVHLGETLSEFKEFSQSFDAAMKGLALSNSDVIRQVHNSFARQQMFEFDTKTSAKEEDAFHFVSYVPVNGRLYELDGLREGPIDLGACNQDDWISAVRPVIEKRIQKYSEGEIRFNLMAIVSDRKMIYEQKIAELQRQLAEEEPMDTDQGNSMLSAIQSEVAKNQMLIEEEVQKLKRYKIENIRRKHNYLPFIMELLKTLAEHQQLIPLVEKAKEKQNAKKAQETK
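Test system – human UCH37 enzyme supplied as purified proteasome complex · Incubation – 30 min preincubation with enzyme, 25 min cleavage at room temperature · Detection – AMC fluorescence from Ub-AMC cleavage, excitation 355 nm, emission 460 nm · Benchmarks – no-proteasome wells (full inhibition) and compound-free wells (no inhibition)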
FGF22 binding – binders of human FGF22 protein, primary screen, FGF22 synaptogenesis inhibitor project, biophysical, thermal shift, single point; calls only at 9.99 µM; Fibroblast growth factor 22 (Homo sapiens), Q9HCT0; hit rate 1.5% among 340,000; recombinant FGF22 thermal shift, SYPRO orange fluorescence; percent of sucrose octasulfate shift, DMSO zero; AID 651658, 2012;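 active means melting point raised past a set limit in the mean and every replicate; three in four hits are not shown here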
Target sequence (Q9HCT0 whole entry, looked up): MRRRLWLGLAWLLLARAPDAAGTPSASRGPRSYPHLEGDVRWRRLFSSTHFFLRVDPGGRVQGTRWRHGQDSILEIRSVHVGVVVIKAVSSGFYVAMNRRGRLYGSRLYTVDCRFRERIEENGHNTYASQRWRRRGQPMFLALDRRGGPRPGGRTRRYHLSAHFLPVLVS
Ecoli rRNA inh OD600 – recorded beside Ecoli rRNA inh, whose call it bears; OD600 change, %; measured here: OD600 growth;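 optical density of the mix in the first replicate; 0 = DMSO median and -100 = no signal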
Ecoli rRNA inh RFP – further read-out of Ecoli rRNA inh, marked with its call; RFP signal change, %; measured here: RFP humanized mutant strains;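 first replicate; 0 = DMSO median and -100 = no signal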
Starred values were filed as active, the others as inactive; i = inactive; / = not tested or not shown; & = joins results of further samples. A portion of the library; rates above refer to the full screens.

SMILES	ALR inh	E coli growth	Ecoli rRNA inh	Ecoli rRNA inh OD600	Ecoli rRNA inh RFP	HNF4A DNA FP	Beta2AR agonist	UCH37 inh	FGF22 binding
Cc1ccc(S(=O)(=O)Nc2ccc3c(c2)C(=O)N([C@@H](C)CO)C[C@@H](C)[C@@H](CN(C)C(=O)NC(C)C)OCCCC[C@H](C)O3)cc1	/	/	-2&19	0&1	-1.5&-1.0	5.1	/	/	i
CC(C)Cc1nc2sc3c(=O)n(N)cnc3c2c2c1COC(C)(C)C2	12	0.66	15	6	-0.8	0.9	4	0.0	i
O=C(O)c1ccccc1C(=O)Nc1ccc(Oc2ccc3ccccc3c2)cc1	99*	0.67	-59	-76	-20	-3.8	-3	0.0	/
COc1ccc(Cl)cc1Cn1c(C)c(C(=O)NCc2cccc(C(F)(F)F)c2)sc1=O	/	/	-2	-8	-3.2	0.0	/	/	i
COc1ccc(C2CC(=O)C3=C(C2)Nc2ccccc2NC3c2coc3ccccc3c2=O)cc1OC (configuration not stated)	/	0.75	/	/	/	-2.6	9	12	/
CCc1nc(Nc2cccc(F)c2)c2oc3ccccc3c2n1	-2	0.69	3	-26	-1.4	0.0	21	-39	i
COC(=O)c1ccccc1SCc1csc(C)n1	-11	0.67	3	7	1.5	167	-20	1.6	i
Cc1ccc(CNCC(O)(c2ccccc2)c2ccccc2)cc1	-2	0.64	5	-7	-4.0	1.7	3	2.2	i
COCCn1c(COC)nc2ccccc21	0	0.76	/	/	/	-1.7	-8	0.9	/
CCOc1ccc(N2C(=O)S/C(=C\c3cccn3C)C2=O)cc1	/	0.68	/	/	/	13	-1	1.3	/
O=C(NCc1ccco1)/C(=C/c1cccc(C(F)(F)F)c1)c1nc2ccccc2[nH]1	46	0.74	/	/	/	0.0	8	-158	/
COc1ccc(CCN2CNc3c(c(=O)n(C)c(=O)n3C)C2)cc1OC	3	0.71	/	/	/	-0.6	8	2.3	/
CCC(=O)NC(=S)Nc1ccc(-c2nc3ccccc3s2)cc1	-3	0.81	/	/	/	0.2	-8	4.9	/
COc1ccccc1NC(=O)CSc1nc2ccccc2c(=O)n1CC1CCCO1 (configuration not stated)	3	0.67	-2	-16	7.3	-2.6	-9	0.3	i
COc1cc(/C=C/C(=O)OCC(=O)c2c(N)n(C)c(=O)n(C)c2=O)ccc1O	42	0.71	2	-2	1.2	1.8	8	-53	i

Two consecutive entries already listed:
SMILES	ALR inh	E coli growth	Ecoli rRNA inh	Ecoli rRNA inh OD600	Ecoli rRNA inh RFP	HNF4A DNA FP	Beta2AR agonist	UCH37 inh	FGF22 binding
Cc1ccc(S(=O)(=O)Nc2ccc3c(c2)C(=O)N([C@@H](C)CO)C[C@@H](C)[C@@H](CN(C)C(=O)NC(C)C)OCCCC[C@H](C)O3)cc1	/	/	-2&19	0&1	-1.5&-1.0	5.1	/	/	i
CC(C)Cc1nc2sc3c(=O)n(N)cnc3c2c2c1COC(C)(C)C2	12	0.66	15	6	-0.8	0.9	4	0.0	i

Next part.
SMILES	ALR inh	E coli growth	Ecoli rRNA inh	Ecoli rRNA inh OD600	Ecoli rRNA inh RFP	HNF4A DNA FP	Beta2AR agonist	UCH37 inh	FGF22 binding
O=C(C(=O)N1CCOCC1)c1cn(CCOc2ccccc2)c2ccccc12	-11	0.72	4	-1	0.3	-0.9	-1	4.5	i
Cc1ccc2c(c1)N(CC(=O)NC1CCC(C)CC1)C(=O)c1cccnc1O2 (configuration not stated)	49	0.73	-7	-18	-2.2	-2.3	2	2.9	/
CC1(C)C/C(=N/Nc2ccc([N+](=O)[O-])cc2[N+](=O)[O-])C(C)(C)O1	-14	/	/	/	/	-1.9	4	/	i
COc1cccc(C2Nc3cc(Cl)c(S(N)(=O)=O)cc3S(=O)(=O)N2)c1 (configuration not stated)	-5	0.72	/	/	/	0.2	2	0.6	/
CC1(C(=O)Nc2nc3ccc(S(C)(=O)=O)cc3s2)CC1(Cl)Cl (configuration not stated)	-6	0.68	-16	-14	-7.1	2.4	2	2.7	i
CC(NC(=O)COC(=O)c1cc(=O)[nH]c2ccccc12)c1ccccc1 (configuration not stated)	-12	0.69	6	5	1.2	-4.3	9	-51	i
Cc1cc2nnn(-c3nnc(-c4ccccc4)c4ccccc34)c2cc1C	33	0.82	/	/	/	2.0	11	5.6	/
Cc1c(C(=O)N(C)Cc2ccc(F)cc2)sc(=O)n1Cc1ccccc1C#N	/	/	-4	-14	-12	-2.4	/	/	i
CC(=O)c1c(C)[nH]c(C(=O)OCC(=O)N(C)C)c1C	-4	0.64	/	/	/	-0.1	4	0.0	/
O=C(CSc1nc(-c2cccs2)cc(C(F)(F)F)n1)Nc1cc(OCC(F)(F)C(F)F)cc([N+](=O)[O-])c1	-3	0.71	/	/	/	0.8	-19	3.3	/
O=c1[nH]c2ccccc2cc1-c1noc(-c2cccnc2)n1	-3	0.71	/	/	/	-0.5	-21	-82	/
CCCc1cc2c(=O)c(-c3ccccn3)coc2cc1OC	-1	0.71	/	/	/	0.6	1	2.6	/
O=C(NCC(=O)N1CCN(S(=O)(=O)c2ccccc2F)CC1)c1ccc(Br)o1	-2	0.71	7	6	-0.1	-1.6	2	6.2	i
O=C(CSc1nc2ccccc2[nH]1)NCCCn1ccnc1	1	0.69	/	/	/	-4.1	0	1.5	/
CCN1C[C@@H]2[C@@H]3C(=O)N(Cc4ccccc4)C(=O)[C@@H]3[C@](C)(C1=O)N2C(=O)c1ccc(C(F)(F)F)cc1	/	/	4	0	-1.0	-1.4	5	-0.9	i
O=C(O)/C=C/c1cccc(OCc2ccccc2)c1	3	/	-15	-16	-5.7	1.3	-1	0.8	i
CCN(Cc1ccccc1)C(c1cc2ccc(C)cc2[nH]c1=O)c1nnnn1CCOC (configuration not stated)	-6	0.71	/	/	/	-1.3	-6	-0.8	/
CCc1ccc(N(C(=O)c2csnn2)C(C(=O)NC(C)(C)C)c2ccncc2)cc1 (configuration not stated)	/	0.7	/	/	/	-3.6	-4	3.5	/
CC1(C)CC(=O)C=C(Nc2cccc(O)c2)C1	8	0.69	/	/	/	-0.6	1	1.5	/
CC(=O)c1ccc(OC(C)c2nc3ccccc3s2)cc1 (configuration not stated)	/	0.7	-1	-24	-4.6	0.8	7	0.8	i
COC(=O)c1ccc(CNC(=O)CCC(=O)N2CCOCC2)cc1	1	0.69	6	17	0.9	-4.0	2	4.4	i
CCCCc1nc2c(=O)[nH]c3ccccc3c2o1	-2	0.72	/	/	/	0.7	-7	3.7	/
O=C(CN1CCOCC1)Nc1nc2cc([N+](=O)[O-])ccc2s1	-14	0.71	/	/	/	-0.7	-13	11	/
Cc1cc2oc(=O)cc(CN3CCCCC3C)c2cc1Cl (configuration not stated)	0	0.65	9	5	4.3	4.4	-5	-0.5	i
CCCNC(=O)C1(C)CCN(Cc2cc(C)n(C)n2)C1 (configuration not stated)	/	/	6	7	0.1	-2.6	/	/	i
Cc1noc(C)c1S(=O)(=O)N(C)C[C@H]1Oc2c(NC(=O)NC(C)C)cccc2C(=O)N([C@H](C)CO)C[C@@H]1C	-4	/	-4	0	-1.4	2.7	4	5.4	i
CC(=O)Nc1ccc(NC(=O)CC(C)n2ccnc2)cc1 (configuration not stated)	/	0.68	6	8	-1.9	-0.9	-3	-0.9	i
Cc1ccccc1-c1nc(CS(=O)CC(=O)NC2CCCCC2)c(C)o1 (configuration not stated)	99*	0.66	-5	-14	2.4	-3.6	16	0.6	i
Cc1nc(NCc2ccco2)[nH]c(=O)c1CCC(C)C	-5	0.61	/	/	/	-1.1	6	3.1	/
COc1cc(/C=N/N2CCN(Cc3ccccc3)CC2)cc(OC)c1OC	/	/	6	2	0.7	2.9	/	/	i

Individual results from the list:
Reading of CCc1ccc(N(C(=O)c2csnn2)C(C(=O)NC(C)(C)C)c2ccncc2)cc1 (configuration not stated) under UCH37 inh: 3.5
Reading of CC(=O)Nc1ccc(NC(=O)CC(C)n2ccnc2)cc1 (configuration not stated) under Ecoli rRNA inh: 6
Reading of CC1(C)CC(=O)C=C(Nc2cccc(O)c2)C1 under E coli growth: 0.69

Retrieved one by one from the list above (7):
SMILES	ALR inh	E coli growth	Ecoli rRNA inh	Ecoli rRNA inh OD600	Ecoli rRNA inh RFP	HNF4A DNA FP	Beta2AR agonist	UCH37 inh	FGF22 binding
Cc1c(C(=O)N(C)Cc2ccc(F)cc2)sc(=O)n1Cc1ccccc1C#N	/	/	-4	-14	-12	-2.4	/	/	i
CCN(Cc1ccccc1)C(c1cc2ccc(C)cc2[nH]c1=O)c1nnnn1CCOC (configuration not stated)	-6	0.71	/	/	/	-1.3	-6	-0.8	/
CCN1C[C@@H]2[C@@H]3C(=O)N(Cc4ccccc4)C(=O)[C@@H]3[C@](C)(C1=O)N2C(=O)c1ccc(C(F)(F)F)cc1	/	/	4	0	-1.0	-1.4	5	-0.9	i
O=C(CN1CCOCC1)Nc1nc2cc([N+](=O)[O-])ccc2s1	-14	0.71	/	/	/	-0.7	-13	11	/
Cc1ccccc1-c1nc(CS(=O)CC(=O)NC2CCCCC2)c(C)o1 (configuration not stated)	99*	0.66	-5	-14	2.4	-3.6	16	0.6	i
Cc1cc2nnn(-c3nnc(-c4ccccc4)c4ccccc34)c2cc1C	33	0.82	/	/	/	2.0	11	5.6	/
CC(C)Cc1nc2sc3c(=O)n(N)cnc3c2c2c1COC(C)(C)C2	12	0.66	15	6	-0.8	0.9	4	0.0	i

The listing continues.
SMILES	ALR inh	E coli growth	Ecoli rRNA inh	Ecoli rRNA inh OD600	Ecoli rRNA inh RFP	HNF4A DNA FP	Beta2AR agonist	UCH37 inh	FGF22 binding
CN(C)C(CNC(=O)c1ccc(C(=O)c2ccccc2)cc1)c1ccccc1 (configuration not stated)	-1	0.61	0	6	-0.4	-1.9	-15	2.9	i
C=CCN(C(=O)Cn1c(C(=O)OC)cc2oc(C)cc21)c1ccccc1	3	0.65	/	/	/	7.9	-2	-0.2	/
Cc1ccc(-c2c(C)n([O-])c3c([n+]2=O)CCCCC3)cc1	1	0.68	21	16	-3.0	-1.2	-7	3.1	i
C=CCNC(=O)C12CC3(C)CC(C)(CC(C)(C3)C1)C2	-6	0.75	/	/	/	2.7	7	2.4	/
C=CCn1c(SCc2nc(N)nc(N(C)C)n2)nnc1-c1cccnc1	-7	0.72	/	/	/	3.3	8	3.6	/
Cn1c(Cl)cnc1C1CC(=O)c2cc(Cl)ccc2O1 (configuration not stated)	13	/	/	/	/	-0.2	-6	/	/
CC(C)OC(=O)c1ccc(N2CCN(c3ccc(F)cc3)CC2)nc1	-1	0.69	-5	-4	-3.2	-1.9	5	-2.4	i
